VDR inhibitor – vitamin D3 receptor (human) inhibition. P11473. VDR-SRC2-3 peptide fluorescence polarization, 2 h. Potency, µM, without a hit: max response, negative = inhibition, hits mostly inhibitors. 400,000 compounds, 0.93% hits; active = well fitted inhibition curve with a large enough effect; inconclusive = small, poorly fitted or top-dose-only effect, or another doubt; inactive = no such curve, though single readings can be large or run the other way; also: series mostly up to about 120 µM
Target sequence (P11473 whole entry, looked up): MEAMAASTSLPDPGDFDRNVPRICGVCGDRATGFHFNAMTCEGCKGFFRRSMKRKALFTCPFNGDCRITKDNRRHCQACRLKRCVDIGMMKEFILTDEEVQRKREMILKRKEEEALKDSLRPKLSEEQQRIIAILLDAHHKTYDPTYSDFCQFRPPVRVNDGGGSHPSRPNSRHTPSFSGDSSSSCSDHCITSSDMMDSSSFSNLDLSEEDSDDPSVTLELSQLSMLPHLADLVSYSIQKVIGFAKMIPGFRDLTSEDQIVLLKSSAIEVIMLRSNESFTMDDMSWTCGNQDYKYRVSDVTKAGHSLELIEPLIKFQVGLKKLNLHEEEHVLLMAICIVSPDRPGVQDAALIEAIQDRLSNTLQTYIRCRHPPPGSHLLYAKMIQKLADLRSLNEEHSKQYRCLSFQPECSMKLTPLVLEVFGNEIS
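Two reagent solutions held at 4 deg C in the dark were dispensed, compounds pinned at 23 nl, and the mixture incubated 2 h at room temperature. Read-out: fluorescence polarization of VDR–SRC2-3 peptide binding.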
Numbers without * were called inactive; ? = inconclusive; & = joins results of further samples. % is scaled to controls: 0 for no effect and ±100 for the full control effect; potency is read from the fitted curve at half-maximal effect. Only part of the results is shown; count on the stated rates, not on these rows.

| smiles | VDR inhibitor |
| --- | --- |
| O=C(Cn1c(=O)oc2cc(S(=O)(=O)NCc3ccccc3)ccc21)NCc1ccc(Cl)cc1 | -2.7% |
| CCC(C)N(C(=O)c1csnn1)C(C(=O)NCc1ccc(F)cc1)c1ccccc1 (stereo not given) | -9.5% |
| CCOc1ccc(NC(=O)CC2Nc3cccc4cccc(c34)NC2=O)cc1 (stereo not given) | -4.2% |
| Cc1ccc(CNC(=O)C2CCCCN2S(=O)(=O)c2ccc(F)cc2)cc1 (stereo not given) | -3.8% |
| COc1ccc(OCC(=O)N2CCN(C(=O)c3cc(OC)c(OC)c(OC)c3)CC2)cc1 | -18.1% |
| CN1C(=O)c2ccccc2N(C)C1c1ccc(F)cc1 (stereo not given) | -27.2% |
| CC(C)(Oc1ccc(Cl)cc1)C(=O)NCc1ccncc1 | 2.0% |
| CC(C)c1ccc2occ(CC(=O)Nc3cccc(C(F)(F)F)c3)c2c1 | 15.8% |
| C=C(C)c1cccc(C(C)(C)NC(=O)Nc2nncs2)c1 | 7.3% |
| C/C(CC(=O)Nc1ccccc1C#N)=N\NC(=O)c1ccncc1 | 4.7% |
| CC(OC(=O)CNC(=O)C1CCCCC1)C(=O)NCc1ccccc1 (stereo not given) | 7.3% |
| COc1ccc(CN(C2CCCC2)S(=O)(=O)c2ccc(-n3cnnn3)c(OC)c2)cc1OC | -9.8% |
| CC1(C)CC(=O)/C(=C\c2cccc([N+](=O)[O-])c2)C(C)(C)N1 | -19.7% |
| CCOC(=O)NCc1ccc2[nH]c(C)cc2c1 | -6.0% |
| CC(=O)Nc1ccc(C=NNc2ccc([N+](=O)[O-])cc2S(=O)(=O)Nc2ccccc2C(=O)O)cc1 | ? |
| CC1(C)CC(=O)C(C=NCCO)=C(O)C1 | -16.3% |
| Cc1cc(NC(=O)C(C)SCC(=O)OC(C)C(=O)Nc2ccc(F)cc2Cl)no1 (stereo not given) | -8.9% |
| O=C1Cc2cc(S(=O)(=O)N3CCN(c4ccccc4)CC3)ccc2N1 | -13.3%&-5.3% |
| CN1CCN(C(CNC(=O)C(=O)Nc2ccc(F)cc2)c2cccnc2)CC1 (stereo not given) | 15.0% |
| CCOC(=O)C1CCN(C(=O)c2ccc(NC(=O)C3CCCO3)cc2)CC1 (stereo not given) | -2.6% |
| O=C(CCC(=O)N1CCOc2ccccc21)N1CCOCC1 | -2.6% |
| Cc1csc(NC(=O)C(C)Oc2ccc(Br)cc2)n1 (stereo not given) | -19.0% |
| CCCC(C)C(=O)Nc1nc(C)c(-c2csc(Nc3ccccc3OC)n2)s1 (stereo not given) | -1.5% |
| CN(Cc1ccccc1)S(=O)(=O)c1ccc2c(c1)n(C)c(=O)c(=O)n2C | 4.9% |
| COc1ccc(C2=NN(C(=O)CSc3nc4ccccc4s3)C(c3ccc(F)cc3)C2)cc1 (stereo not given) | -19.2% |
| COC(=O)Nc1ccc(S(=O)(=O)NNC(=O)c2c(O)c3ccccc3n(C)c2=O)cc1 | -16.5% |
| CCN1CCN(c2oc(/C=C/c3cc(OC)c(OC)c(OC)c3)nc2C#N)CC1 | -0.2% |
| CS(=O)(=O)c1cccc(C(=O)NCc2ccc(F)cc2)c1 | -2.7% |
| Cc1ccc(NS(=O)(=O)c2ccc(-c3coc(C)n3)cc2)c(C)c1 | 13.9% |
| COc1ccc(Cc2nc3c4cnn(-c5ccccc5F)c4ncn3n2)cc1 | 1.0% |
| COc1cc(-c2nc3ncccn3c2Nc2ccc(C)cc2C)ccc1O | -4.9% |
| CSCC[C@H](NC(=O)c1ccc2c(c1)OCO2)c1nnc2ccccn12 | 2.5% |
| Cn1cnc(S(=O)(=O)N2CCC(C(=O)N3CCN(c4ccc(Cl)cc4)CC3)CC2)c1 | 7.1% |
| COc1cccc(/C=N/NC(=O)c2cccc(N3CCCC3=O)c2)c1 | 13.7% |
| COc1ccccc1NC(=O)Nc1ccccc1SC | 0.8% |
| COCCCn1c(SCC(=O)Nc2sc3c(c2C#N)CCCC3)nnc1-c1ccncc1 | -0.1% |
| CCN(CC)CCNC(=O)c1ccc2nc(CCc3ccccc3)oc2c1 | 16.0% |
| COc1cc(C(=O)N2CCC(N3CCCCCC3)CC2)cc(OC)c1OC | -1.4% |
| CSc1ccc(CNC(=O)C2CCC(=O)N(Cc3cccc(F)c3)C2)cc1 (stereo not given) | -22.1% |
| Cc1ccc(NC(=O)CSc2ccc(-c3ccco3)nn2)cc1 | 2.8% |
| COc1ccc(CCNC(=O)c2nonc2N)cc1 | 3.1% |
| CCOC(=O)c1cc(S(=O)(=O)N2CCN(c3ccc(F)cc3)CC2)[nH]n1 | 7.0% |
| CSc1ccccc1NC(=O)Cc1ccccc1 | 10.4% |
| CO/N=C(\c1ccccc1)c1cccnc1 | 7.3% |
| Cc1cc(C)cc(C(=O)Nc2nnc(SCC(=O)N3CCCc4ccccc43)s2)c1 | -19.2% |
| Cc1ccccc1C(=O)NNC(=O)c1ccncc1 | -12.4% |
| NNC(=O)COc1ccc(C2SCCS2)cc1 | -0.5% |
| CCCc1cc(=O)[nH]c(SCC(=O)Nc2ccccc2C#N)n1 | 16.5% |
| CCc1ccc(NC(=O)CCC(=O)Nc2nnc(C(C)C)s2)cc1 | -3.9% |
| Cc1ccc(Nc2nc(N)c([N+](=O)[O-])c(NCc3ccco3)n2)cc1C | -10.7% |
| COCCCN(C(=O)Cn1ncc2c(=O)oc3ccc(C)cc3c21)C(C)c1ccncc1 (stereo not given) | 7.1% |
| Cc1n[nH]c(C)c1CCNC(=O)C1CCC(=O)N(CCc2cccc(F)c2)C1 (stereo not given) | -14.6% |
| COc1ccc(NC(=O)c2ccc3c(c2)C(=O)N(CC2CCCO2)C3=O)cc1O (stereo not given) | -10.3% |
| CC(C)c1ccc(S(=O)(=O)N2CCN(C(=O)C3CC3C)CC2)cc1 (stereo not given) | ? |
| CCNC(=S)NNC(=O)c1csc(C(C)C)c1 | 23.5% |
| OCCNCc1cccc(Br)c1 | -2.7% |
| c1ccc(-c2ccccc2OCCOCCN2CCOCC2)cc1 | -15.9% |
| COC(=O)C(NC(=O)CCc1nnc2ccc(N3CCCCC3)nn12)C(C)C (stereo not given) | 3.1% |
| Cc1ccc(-c2cn3c(n2)sc2cc(C(=O)NC4CCCCCC4)ccc23)c(C)c1 | 14.1% |
| CN1CCC(N(C)S(=O)(=O)c2ccc(NC(=O)COc3ccc(Cl)cc3)cc2)CC1 | 4.5% |

(listing goes on)
| smiles | VDR inhibitor |
| --- | --- |
| CCOc1ccccc1NC(=O)c1cccc(NC(=O)c2ccco2)c1 | 16.8% |
| CCOc1cc(C=O)cc(Br)c1OCC(=O)NCCc1ccccc1 | -1.8% |
| CC(=O)OC1CC2C(C)(C)C=CC(=O)[C@@]2(C)C2CC[C@@]3(C)C(c4ccoc4)OC(=O)C4OC43[C@]12C (stereo not given in full) | ? |
| Cc1cc(C)c(C)c(OCCCCN(C)Cc2ccccc2)c1 | 16.3% |
| Clc1cccc(-n2ncc3c(NCCCc4ccccc4)ncnc32)c1 | -0.4% |
| CCc1cccc2c(SC(C)C(=O)NCC3CCCO3)nc(-c3ccccc3)nc12 (stereo not given) | -6.9% |
| Cc1ccc2c(c1)c1c(n2C)-c2[nH]ncc2CC1 | 23.5% |
| Nn1c(Cc2cccc3ccccc23)nnc1SCc1c(F)cccc1Cl | -3.4% |
| CC(=O)Nc1ccc2c(c1)CN(c1cc(C)ccc1C)CO2 | -3.1% |
| CN(C)CCCNc1oc(-c2ccccc2Cl)nc1S(=O)(=O)c1ccc(F)cc1 | -13.0% |
| Clc1ccc(-c2nnc(CNC3CC3)o2)cc1 | 8.0% |
| CCOC(=O)CNC(=O)C(Cc1ccccc1)NS(=O)(=O)c1ccc2c(c1)CCC(=O)N2 (stereo not given) | 2.1% |
| CC(Oc1ccccc1F)c1nnc(SCC(=O)Nc2ccc(N3CCOCC3)cc2)o1 (stereo not given) | -6.5% |
| Cc1c(CCC(=O)O)c(=O)oc2cc3occ(-c4ccc(Cl)cc4)c3cc12 | -28.5% |
| Cc1cc2nc(C(C)(C)C)cc(N)n2n1 | -5.4% |
| CCOC(=O)N(C)S(=O)(=O)c1ccccc1[N+](=O)[O-] | -2.0% |
| CC(C)C(C(=O)NCc1ccco1)N(C(=O)CNS(=O)(=O)c1ccccc1)C1CCCC1 (stereo not given) | 11.1% |
| CCCCCc1ccc(CC(=O)O)cc1 | -8.3% |
| COc1cccc(/C=N/Nc2nnc3c(n2)[nH]c2ccccc23)c1OC | -5.4% |
| Nc1nc(C(F)(F)F)cc(=O)n1N | -4.9% |
| Cc1cccc([C@@H]2[C@@H]3C(=O)N(Cc4ccccc4)C(=O)[C@@H]3[C@]3(Cc4ccccc4)C(=O)N(c4cccc(Cl)c4)C(=O)N23)c1 | -22.2% |
| CC(=O)Nc1c2c(nn1-c1ccc(C)cc1C)CSC2 | -29.0% |
| COc1cc(C(c2sc3nc(C)nn3c2O)N2CCN(c3ccccc3)CC2)cc(OC)c1OC (stereo not given) | -7.2% |
| O=C(Cn1cnc2c(NC(=O)OCc3ccccc3)ncnc21)NCc1ccccn1 | -7.5% |
| O=C1Nc2ccccc2N(O)N1c1cc(-c2ccccc2)[nH]n1 | 13.5% |
| Cc1c(NC(=O)c2ccc(NS(=O)(=O)c3ccc(F)c(F)c3)cc2)c(=O)n(-c2ccccc2)n1C | -6.5% |
| COc1ccccc1CNC(=O)c1ccccc1OC | -10.0% |
| COC(=O)c1ccc2c(=O)n(CC3CCCO3)c(=S)[nH]c2c1 (stereo not given) | -14.7% |
| O=C(NC1(C(F)(F)F)N=C(c2ccccc2)N(C2CCCCC2)C1=O)c1ccc(F)cc1 (stereo not given) | -11.4% |
| Cc1cccc(NC(=O)CSc2nc(NS(=O)(=O)c3ccccc3)cc(=O)[nH]2)c1 | -4.0% |
| CCOC(=O)c1nc(C)nc(Sc2n[nH]c(-c3ccccc3)n2)c1C | -13.6% |
| CC(C)=CCc1c(O)ccc(C2COc3c(CC=C(C)C)c(O)cc(O)c3C2=O)c1O (stereo not given) | -0.3% |
| CC1CC1C(=O)OCC(=O)NC(=O)NC12CC3CC(CC(C3)C1)C2 (stereo not given) | -0.2% |
| COc1ccc(OC)c(NC(=O)CSc2ccnc(=O)[nH]2)c1 | 0.7% |
| CCN1CCN(CC(=O)Nc2ccc(S(=O)(=O)N3C(C)CCCC3C)cc2)CC1 (stereo not given) | -0.8% |
| Cc1noc(C)c1C(=O)OCC(=O)NCCc1ccc(S(N)(=O)=O)cc1 | -18.3% |
| Cc1ccc2c(=O)cc(C(=O)Nc3ccc(S(=O)(=O)Nc4onc(C)c4C)cc3)oc2c1 | -1.6%&-4.8% |
| O=C(O)c1cccc(NC(=O)c2cccc(NC(=O)C3CCCO3)c2)c1 (stereo not given) | 7.3% |
| Cc1ccccc1-n1c(SCC(=O)N/N=C/c2c(C)nn(-c3ccccc3)c2C)nc2ccccc2c1=O | -7.3% |
| O=C(CSc1nc2ccccc2[nH]1)NC(=O)NCc1ccco1 | 11.5% |
| COc1ccc(CCN(C)C(=S)NC(=O)c2ccc(F)cc2Cl)cc1OC | -1.0% |
| Cc1cccc(NC(=O)CSc2nc(=O)n(CCCN3CCOCC3)c3c2CCCC3)c1 | 6.5% |
| Cc1ccc(-n2c(Cn3cnc4ccccc43)nnc2SCC(=O)O)cc1 | -7.7% |
| CCOC(=O)C1=C(C)NC(SCC(N)=O)=C(C#N)C1c1ccncc1 (stereo not given) | -6.7%&-14.1% |
| COc1ccc(/C=N/OCc2ccc(Br)cc2)c(OC)c1 | 1.5% |
| CC(C)NC(=O)c1onc(CSc2ccc(Cl)cc2)c1C(=O)NC(C)C | -27.4% |
| N=C1CCCN1CC(=O)c1ccc(Cl)cc1 | -14.0% |
| Cn1c2c(c(=O)n(C)c1=O)C(c1ccc(O)cc1)Nc1ccccc1O2 (stereo not given) | 15.0% |
| COc1cc(C)c(C)cc1S(=O)(=O)N1CCN(Cc2ccccc2)CC1 | 9.9% |
| Cc1cc(O)c(Sc2ccc(Cl)cc2)c(=O)[nH]1 | -8.2% |
| NNc1nc2c(Cl)c(Cl)ccc2s1 | ? |
| O=C(NNc1ccc([N+](=O)[O-])cc1[N+](=O)[O-])c1ccco1 | -19.0% |
| CCCOc1ccc(N2C(=O)CC(N3CCOCC3)C2=O)cc1 (stereo not given) | 4.2% |
| Cc1ccc(NC(=S)NC(=O)CC2CC(C)(C)OC2=O)cc1 (stereo not given) | -3.6% |
| CCOCCn1c(COc2ccccc2)nc2ccccc21 | 8.4% |
| CN(Cc1cnccn1)Cc1ccccc1OCC(O)CN1CCc2ccccc2C1 (stereo not given) | -4.8% |
| Cc1noc(C)c1C(=O)Nc1cccc(S(=O)(=O)N2CCOCC2)c1 | 27.8% |
| COc1cc(CNn2nnnc2N)ccc1OCc1c(Cl)cccc1Cl | -5.8% |
| Cc1ccc(C)n1NC(=O)c1cccs1 | -6.7% |
| CCc1ccc(C(=O)Nc2ccc3nc(C)ccc3c2)cc1 | -0.6% |

Remaining list, next part.
| smiles | VDR inhibitor |
| --- | --- |
| O=c1cc(-c2cccc([N+](=O)[O-])c2)[nH][nH]1 | -21.6% |
| CCOC(=O)N1CCN(C(=O)COC(=O)c2oc3ccc(OC)cc3c2C)CC1 | -9.3% |
| CCc1ccc(C(=O)Nc2ccc(C)c(NS(C)(=O)=O)c2)cc1 | -8.9% |
| N#Cc1c(NC2CCCCC2)nc(-c2ccco2)c2c1CCCC2 | -10.9% |
| C=CCN1C(=O)c2ccc(C(=O)N(CC)CC(=O)Nc3ccc(OC)cc3)cc2C1=O | -16.5% |
| O=C(O)c1ccccc1C(=O)Nc1ccc(S(=O)(=O)Nc2nccs2)cc1 | -13.3%&2.4%&19.2% |
| CN(CCc1ccccn1)C(=O)c1cccnc1Oc1ccccc1 | -0.5% |

Compounds shown so far containing a CF3 group (three):
| smiles | VDR inhibitor |
| --- | --- |
| CC(C)c1ccc2occ(CC(=O)Nc3cccc(C(F)(F)F)c3)c2c1 | 15.8% |
| Nc1nc(C(F)(F)F)cc(=O)n1N | -4.9% |
| O=C(NC1(C(F)(F)F)N=C(c2ccccc2)N(C2CCCCC2)C1=O)c1ccc(F)cc1 (stereo not given) | -11.4% |

Screening data: PubChem, National Center for Advancing Translational Sciences (NCATS)
